# Vaccinia Venus – vaccinia inhibition (Venus reporter). Potency, µM (series often up to 36.5 µM), without a hit: at the top dose activity change, negative = inhibition, actives largely listed as inhibitors. hit rate 0.46% among 330,000. Vaccinia virus Venus reporter expression, fluorescence; active means well fitted inhibition curve with a large enough effect; inconclusive means small, poorly fitted or top-dose-only effect; inactive means no such curve, though single readings can be large or run the other way; tested in A549 cells; also: nearly all actives have a fitted effect of over 30% in size; inactives centre near -10
# VACV mCherry inh – inhibitors of vaccinia virus infection (mCherry reporter signal); Vaccinia virus mCherry reporter infection, fluorescence; about a quarter of the inactives have no number; Potency, µM (series often up to 36.5 µM), for inactives: at the highest dose activity change, negative = inhibition, most hits filed as inhibitors; hit rate 0.63% among 310,000; AID 720579; active = well fitted inhibition curve with a large enough effect; inconclusive = small, poorly fitted or top-dose-only effect; inactive = no such curve, though single readings can be large or run the other way; tested in A549 cells; also: nearly all actives have a fitted effect of over 35% in size; inactives centre near -10
# Starred values were filed as active, the others as inactive; i = inactive; u = inconclusive; x = no result given; & = joins results of further samples; [ ] = another dose, or the depositor's remark. % is scaled to controls: 0 for no effect and ±100 for the full control effect; potency is read from the fitted curve at half-maximal effect.
SMILES,Vaccinia Venus,VACV mCherry inh
COc1ccccc1-c1cncnc1NCc1cccnc1,0.0%,i
Cc1ccc(-c2nc(N)nc(N)n2)c(C)c1,-12.2%,u
CC(=O)N1CCN(C(=O)c2ccc3c(c2)OCO3)CC1,-2.6%,-23.7%
COc1ccc([C@H]2CC(=O)C=C(c3cc4ccccc4s3)C2)cc1OC,u,-24.9%
COc1ccccc1CCC(=O)OCC(=O)NCc1ccc(OC)c(OC)c1,-4.7%,-20.8%
O=C1NC(Cc2ccccc2)c2nc3ccc(Cl)cc3c(=O)n2-c2cc3ccccc3cc21 (stereo not drawn),-22.0%,i
CCOc1ccc(-c2nonc2NC(=O)c2ccco2)cc1OCC,-9.6%,i
CC1=C(C(=O)Nc2cccnc2)C(c2ccccc2)n2nc(SCc3ccccc3Cl)nc2N1 (stereo not drawn),-0.2%,0.3%
Cc1ccc(CC(=O)O/N=C(\N)Cc2ccc([N+](=O)[O-])cc2)cc1,-16.1%,-13.3%
O=c1cc(O)n(-c2ccc(Cl)cc2)c(=S)[nH]1,-1.0%,x
C[C@@H]1CCCCO[C@H](CN(C)C(=O)Nc2ccc(F)cc2)[C@@H](C)CN([C@H](C)CO)C(=O)c2cc(N(C)C)ccc2O1,-15.0%,i
NC(Cc1ccccc1Cl)c1nn[nH]n1 (stereo not drawn),-5.6%,-28.2%
O=C(NC1CC1)C1=C[C@@H](c2ccc(Br)cc2)C[C@@H](OCCCCO)O1,-20.0%,i
CCOC(=O)c1c(N)n(-c2ccccc2CC)c2nc3ccccc3nc12,-6.4%,-28.7%
COc1cc(/C=C/C(=O)N2CCN(c3ccccn3)CC2)cc(OC)c1OC,-13.9%,-1.5%
Cc1cccc(C)c1NC(=O)c1cccc(N2C(=O)C3CCC(C)CC3C2=O)c1 (stereo not drawn),-13.6%,-3.2%
CC(=O)Nc1cccc(C(=O)Nc2ccc(S(=O)(=O)N3CCCCC3)cc2)c1,-15.0%,-1.3%
Clc1cc(Br)ccc1OCCOCCN1CCOCC1,-17.3%,-27.1%
CCc1ccc(N(C(=O)CNC(=O)c2ccco2)C(C(=O)NC2CCCC2)c2cccnc2)cc1 (stereo not drawn),-12.7%,-17.1%
CCOc1ccc(Cl)cc1-c1cc(C(=O)Nc2cc(OC)ccc2OC)[nH]n1,-4.3%,-5.6%
CCOc1ccc(NC(=O)NCCCN2CCCC2)cc1,-9.4%,-13.9%
COc1ccccc1N1CCN(C(=O)c2cc3sccc3n2C)CC1,-17.4%,-8.2%
C[C@H]1CN=C(N(C)C)N1CC1CCCCC1,1.1%,i
C[C@@H]1CN([C@H](C)CO)C(=O)CCCn2nncc2CO[C@@H]1CN(C)S(=O)(=O)c1ccc(Oc2ccccc2)cc1,u,u
NC1=NC(=O)/C(=C\c2cccs2)S1,-14.0%,-24.5%
SMILES,Vaccinia Venus,VACV mCherry inh
CCc1cccc(NC(=O)c2ccc(NC(=O)N3CCSc4ncccc43)cc2)c1,u,u
CC(C)Cn1c(=O)c(-[n+]2ccccc2)c([O-])c2ccccc21,-14.9%,-6.9%
CCCCCn1c(CNC(=O)c2cccs2)nc2ccccc21,-19.2%,-16.1%
COc1ccc(C=NNC(=O)CCCC(=O)NN=Cc2ccc(OC)c(OC)c2)cc1OC,-2.9%,-14.5%
CC(C)OCCCNC(=O)c1c(N)n(/N=C/c2ccccn2)c2nc3ccccc3nc12,-7.1%,i
O=C(NOC(=O)c1c(F)cccc1Cl)c1ccc(Cl)c(Cl)c1,-8.7%,-14.6%
CCC(C)(C)NC(=O)c1ccc2c(c1)S(=O)(=O)c1ccccc1C2=O,3.0%,-1.7%
COc1ccc(N2C(=O)C(CC(=O)Nc3ccc(F)cc3)N(Cc3ccc4c(c3)OCO4)C2=O)cc1 (stereo not drawn),-4.2%,-5.1%
O=C(O)c1cc(Cl)c(Cl)cc1C(=O)NCc1ccco1,-8.3%,-24.5%
CCCCC(=O)N/N=C/c1sccc1C,5.8%,-5.2%
CCOC(=O)c1ccc(N/C=C/C(=O)c2ccc(OC)cc2)cc1,-3.7%,-16.4%
CCOC(=O)CCCCCCCCCCCCC1C=CCC1 (stereo not drawn),0.0%,i
COc1ccc2c(c1)SCCC2=O,-16.4%,x
CCC(C)(NC(=O)CNC(C)=O)C(=O)NC1CCCCC1 (stereo not drawn),-12.3%,i
Cc1occc1C(=O)N(C)CC1CCCN(CCc2ccc(Cl)cc2)C1 (stereo not drawn),-16.4%,-2.9%
COc1ccccc1-n1c(/C=C/c2ccccn2)nc2ccccc2c1=O,u,u
O=C(c1cccc([N+](=O)[O-])c1)N1CCCN(C(=O)c2cccc([N+](=O)[O-])c2)CC1,0.6%,-14.2%
COc1ccc(N2CCN(C(=O)c3c(C)oc4nc(C)nc(N5CCCC5)c34)CC2)cc1,-17.2%,-8.1%
COc1ccc(S(=O)(=O)Nc2c(O)c3ccccc3oc2=O)cc1,-6.8%,i
O=C(O)c1ccc2c(c1)C(=O)N(c1ccc(C(=O)OCC(=O)c3ccccc3)cc1)C2=O,-5.1%,-7.1%
COc1ccccc1N1CCN(CC(=O)Nc2nccs2)CC1,-5.1%,-10.1%
COc1ccc(-n2nc(C(=O)N3CCC(N4CCCCC4)CC3)c3c4ccccc4n(C)c3c2=O)cc1,-15.6%,-14.5%
CNC(=O)c1[nH]cnc1C(=O)N[C@@H](CCCCNC(=O)OC(C)(C)C)C(=O)OC(C)(C)C,-7.9%,1.6%
CC(=O)c1cccc(Nc2nc(-c3ccccc3Cl)nc3ccccc23)c1,-16.5%,-23.3%
NC(=O)C1CCN(CC(=O)N2N=CCC2c2ccccc2)CC1 (stereo not drawn),-7.2%,i
SMILES,Vaccinia Venus,VACV mCherry inh
Cc1ccc(S(=O)(=O)NN2C(=O)/C(=C/c3ccc(F)cc3)SC2=S)cc1,-5.1%,i
O=C(O)c1cccc(NS(=O)(=O)c2ccc(Cl)c(C(=O)Nc3cccc([N+](=O)[O-])c3)c2)c1,-4.4%,i
Cc1ccc([C@H]2C[C@@H](O)[C@H](n3cc(C4CC4)nn3)CN2C(=O)c2cccs2)cc1,-6.9%,i
O=C(N/N=C/C=C/c1ccccc1[N+](=O)[O-])c1cccnc1,-1.9%,-2.5%
CCc1ccccc1NC(=O)c1ccc2c(O)c(S(=O)(=O)c3ccccc3)c(=O)[nH]c2c1,-9.9%,-3.3%
COc1ccc(N2CCN(C(=O)C3CCN(C(=O)c4cccc(Cl)c4)CC3)CC2)cc1,-9.6%,-25.0%
Cc1nc(NNC(=O)c2ccc(Cl)cc2Cl)cc(-c2ccccc2)n1,u,x
CCn1c(=O)c2cc(C(=O)N(CCCOC(C)C)Cc3ccco3)sc2c2ccccc21,-13.4%,-18.1%
CC(=C1C(=O)c2ccccc2C1=O)N1CCN(Cc2ccccc2)CC1,-4.2%,-12.7%
CCOC(=O)/C(=N\Nc1ccc(Cl)cc1)Sc1nnc(-c2ccc(OC)cc2)n1C,-0.4%,i
CC(OC(=O)Cc1ccccc1[N+](=O)[O-])C(=O)Nc1ccc(Cl)cn1 (stereo not drawn),-4.5%,i
CCN(CC)c1cc2nonc2c2nonc12,-13.3%,-15.3%
CCSC1=N/C(=C\C=C2/Oc3ccccc3N2CC)C(=O)S1,41.4%[activator],u
Cc1ccc(CN2CCSc3ccc(C(=O)N4CCC5(CC4)OCCO5)cc32)cc1,-13.1%,-2.4%
Cc1ccc(C(C)NC(=O)C2CCCO2)cc1C (stereo not drawn),-6.9%,-5.3%
CC(C)(C)NC(=O)C(c1ccncc1)n1c(=O)c(-c2cc3ccccc3[nH]2)nc2ccccc21 (stereo not drawn),u,u
COc1ccc(Cn2ccc3nc(C)c(C(=O)N4CCN(c5ccccc5F)CC4)cc3c2=O)cc1,-21.3%,-21.8%
Cc1ccc(CCNC(=O)CN2C(=O)COc3ccc(S(=O)(=O)N4CCOCC4)cc32)cc1,-10.7%,i
CN(C)CCNc1oc(-c2ccc(COc3ccc(Cl)cc3)o2)nc1C#N,-14.3%,-13.0%
O=C1CC(c2ccccc2)Sc2ccccc2N1Cc1ccccc1F (stereo not drawn),u,u
COc1ccccc1CCNS(=O)(=O)c1ccc(N2CCCCS2(=O)=O)cc1,-11.9%,-8.1%
CCCOc1ccc(/C=N/NC(=O)C(=O)Nc2ccccn2)cc1,-10.0%,-5.1%
CCC(C)NC(=O)Nc1ccccc1C (stereo not drawn),-5.1%,x
CC1(C)C=CC(=O)[C@]2(C)C1CC(=O)[C@]1(C)C2CC[C@@]2(C)C(c3ccoc3)OC(=O)C3OC321 (stereo partly drawn),-28.7%,-1.4%
O=C(NCCCN1CCOCC1)c1cc(Cl)ccc1[N+](=O)[O-],-13.1%,i
SMILES,Vaccinia Venus,VACV mCherry inh
Cc1ccc(NC(=O)C2CCCN(c3ncnc4onc(C)c34)C2)cc1Cl (stereo not drawn),-29.3%,u
COc1ccccc1OCCn1cc(/C=N/NC(N)=S)c2ccccc21,1.26µM*,u
Cc1ccc(C(=O)NC2CCN(S(=O)(=O)c3ccccc3F)CC2)cc1,-12.1%,u
O=c1cc2[nH]c3ccccc3c(=O)n2nc1-c1ccccc1,-10.7%,-12.5%
CC(CNS(=O)(=O)c1ccc2c(c1)CC(=O)N2C)c1ccccc1 (stereo not drawn),-15.5%&-2.1%,-26.4%&-16.2%
N=c1c(S(=O)(=O)c2ccc(Cl)cc2)cc2c(=O)n3ccccc3nc2n1CCN1CCOCC1,-2.2%,-0.5%
COC(=O)c1ccc(C(=O)OC)c(NC(=O)C2CC2)c1,-10.0%,-7.2%
CCS(=O)(=O)NCCc1csc(C)n1,-9.5%,-12.2%
COc1ccc(C(=O)Nc2ccc(S(=O)(=O)Nc3cc(C)nc(C)n3)cc2)cc1,0.0%&16.8%,-6.5%&5.6%
COc1ccc(-c2cn3c(n2)sc2cc(C(=O)Nc4ccc(F)cc4)ccc23)cc1,-6.7%,-1.6%
COc1ccc(C(C)(C)C)cc1NC(=O)CCCN1C(=O)CN(C)C1=O,-13.9%,-16.6%
CC(c1ccccc1)n1cnc2ccccc2c1=O (stereo not drawn),-7.7%,-12.6%
CCCc1cc(C(=O)N/N=C/c2ccc(C)o2)c2ccccc2n1,u,u
CCOC(=O)c1ccc2ncc(C(=O)OCC)c(NCCCN3CCOCC3)c2c1,3.9%,-10.5%
CSc1nc(N)c2c3c(sc2n1)COC(C(C)C)C3 (stereo not drawn),-25.7%,x
CCOC(=O)C1(Cc2ccc(OC)cc2)CCN(C(=O)c2cncs2)CC1,4.1%,-15.7%
CCN(CC)CCNC(=O)c1cn(-c2ccccc2)nc1-c1cccs1,u,u
O=C1C=CC(=O)N1c1ccccn1,8.9%,-13.7%
COc1ccc(CNC(=O)c2ccc3c(c2)N(C)C(=O)C2CCCCN32)cc1OC (stereo not drawn),3.2%,-2.7%
Cc1ccc(Cn2nnc3c(=O)n(CC(=O)NCC4CCCO4)cnc32)cc1 (stereo not drawn),-9.1%,-12.0%
CCCN1CCN(CCCNC(=O)Cn2nc(-c3ccccc3)ccc2=O)CC1,-5.7%,i
COc1ccc(OCCSc2nc3ccccc3c(=O)[nH]2)cc1,-9.2%,0.7%
CCOc1ccccc1Nc1cc2n(c(=O)n1)CCc1cc(OC)c(OC)cc1-2,-21.2%,-27.3%
CCC(=O)Nc1ccc(NC(=O)CSc2nnnn2Cc2ccccc2)cc1C,-6.2%,2.5%
COc1ccc(C(=O)NCC(=O)NC2=NCCS2)cc1,11.0%,-13.7%
SMILES,Vaccinia Venus,VACV mCherry inh
CCOC(=O)C1=C(C)NC(C)=C(C(=O)OCC)C1C(=O)OCC(=O)NCc1ccco1,-4.3%,-13.2%
COCCCNC(=O)C(CC(N)=O)NC(=O)OCc1ccccc1 (stereo not drawn),-9.4%,-20.4%
COc1ccc(Cl)cc1S(=O)(=O)N1CCN(CC(=O)C(C)(C)C)CC1,-8.0%,i
CCC(CC)C(=O)N(C)c1c(C)nc2c(OCc3ccc(Cl)cc3Cl)cccn12,-19.6%,-3.9%
COc1ccc(NC(=O)COC(=O)c2ccc(OC)c(S(=O)(=O)N3CCCC3)c2)cc1OC,0.9%,-8.1%
CCOC(=O)c1ccccc1NC(=O)C(C)Oc1ccccc1 (stereo not drawn),-23.4%,-26.7%
